KCNQ2 inh: KCNQ2 channel blockers in CHO-K1 cells – cell-based, FluxOR thallium flux, B-score, primary screen (AID 2156). O88943. 20 min; active compounds read low; only compounds with negative scores are shown here; some inactives read as strong as hits. B-score at 10 µM. 310,000 compounds, 1.1% hits;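 active = fluorescence ratio B-score at most minus 3 library SDs, with starting brightness B-score within 2 library SDs, cut at about -5.5 in these data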
Target sequence (O88943 whole entry, looked up): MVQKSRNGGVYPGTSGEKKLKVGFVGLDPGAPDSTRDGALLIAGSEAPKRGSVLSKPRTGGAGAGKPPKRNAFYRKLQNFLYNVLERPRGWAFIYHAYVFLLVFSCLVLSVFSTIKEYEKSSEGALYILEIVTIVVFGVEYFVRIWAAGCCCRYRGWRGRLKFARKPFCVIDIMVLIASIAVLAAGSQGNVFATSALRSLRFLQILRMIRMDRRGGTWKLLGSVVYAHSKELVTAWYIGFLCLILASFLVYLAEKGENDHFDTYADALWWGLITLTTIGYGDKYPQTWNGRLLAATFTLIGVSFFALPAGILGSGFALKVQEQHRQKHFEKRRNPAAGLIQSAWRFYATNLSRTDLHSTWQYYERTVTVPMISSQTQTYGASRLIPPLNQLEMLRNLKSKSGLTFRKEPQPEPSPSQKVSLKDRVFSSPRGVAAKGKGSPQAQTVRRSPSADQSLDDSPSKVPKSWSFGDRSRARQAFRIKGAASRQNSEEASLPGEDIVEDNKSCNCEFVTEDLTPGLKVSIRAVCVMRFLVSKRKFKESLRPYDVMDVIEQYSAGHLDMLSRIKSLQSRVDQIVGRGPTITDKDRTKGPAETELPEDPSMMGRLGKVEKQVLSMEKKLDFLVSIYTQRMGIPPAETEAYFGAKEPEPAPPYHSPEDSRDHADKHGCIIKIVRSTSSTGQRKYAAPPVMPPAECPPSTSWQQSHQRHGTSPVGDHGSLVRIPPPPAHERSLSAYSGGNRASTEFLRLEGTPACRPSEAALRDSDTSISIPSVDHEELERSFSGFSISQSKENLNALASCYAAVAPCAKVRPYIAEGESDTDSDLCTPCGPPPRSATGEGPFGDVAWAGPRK
KCNQ2 inh baseline: second read-out of KCNQ2 inh, no call of its own (marks repeat the call); B-score; measured here: initial fluorescence intensity artifact check;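 brightness before thallium and not channel activity; 0 = typical well and far values either way flag optical interference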
Starred values were filed as active, the others as inactive; i = inactive. These rows are one share of the data; rates above refer to the full screens.

KCNQ2 inh baseline	KCNQ2 inh	SMILES
-0.46	i	O=C(CC1C(=O)NCCN1C/C=C/c1ccccc1)NCCCC1CCCC1 (stereo not given)
-0.66	i	Cc1cccc(N2CCN(C(=O)COc3ccc4c(c3)CCC4)CC2)c1C
1.79	i	CCOc1ccc(N2C(=O)C3ON(c4ccccc4)C(c4ccco4)C3C2=O)cc1 (stereo not given)
0.56	i	c1ccn(-c2ccc(-c3ccn[nH]3)cc2)c1
0.95	i	Cc1c(C(=O)O)c(C(=O)O)c2n1CCS2
-0.42	i	Cc1ccc(C(=O)CCNc2ccc(Cl)cc2)o1
-1.82	i	COCCCNC(=O)c1cc2c(=O)n3cccc(C)c3nc2s1
-0.36	i	Cc1cc(C(=O)N2CCN(S(=O)(=O)c3ccccc3F)CC2)c(C)o1

Remaining list, next part:
KCNQ2 inh baseline	KCNQ2 inh	SMILES
1.31	i	CCC(=O)Nc1nnc(SCc2ccccc2F)s1
-0.02	i	Oc1c(C=NCc2ccccc2)sc2ccccc12
0.39	i	Cc1cc(C)cc(N(C(C)C(=O)Nc2c(C)n(C)n(-c3ccccc3)c2=O)S(C)(=O)=O)c1 (stereo not given)
2.72	i	COc1cc(OC)cc(C(=O)N[C@H](C(=O)OCC(=O)c2ccc(F)cc2)C(C)C)c1
3.68	i	COc1ccc(/C(O)=C2\C(=O)C(=O)N(c3cc(C)on3)C2c2ccccc2OC)cc1C (stereo not given)
2.21	i	Cc1cc(NC(=O)CSc2nc3cc(Cl)ccc3o2)no1
3.71	i	CCCS(=O)(=O)N1CCN(Cc2ccncc2)CC1
0.42	i	Cn1c(CC(=O)NCCO)c(Sc2ccccc2)c2ccccc21

(list continues)
KCNQ2 inh baseline	KCNQ2 inh	SMILES
1.6	i	Cc1ccc(S(=O)(=O)NC(C(=O)N2CCOCCOCCOCCOCC2)C(C)C)cc1 (stereo not given)
1.54	i	COc1ccccc1-c1nnc(SCC(=O)N2CCOCC2)o1
-1.55	i	Cc1ccc2c(c1)SC1=NC(c3ccccc3)(C(F)(F)F)NC(=O)N12 (stereo not given)
3.75	i	CC(=O)NC(Cc1ccc(F)c(F)c1)C(=O)NC1CCN(C(=O)c2ccc(C)cc2)CC1 (stereo not given)
-0.22	i	O=C(NCc1cccnc1)c1ccccc1Br
0.94	i	COc1ccc(/C=C(\NC(=O)c2cccs2)C(=O)NN)cc1OC
-1.2	i	O=C1CNC(=O)N1c1ccc(Cl)cc1
0.18	i	Cc1cccc(N(Cc2cc3ccccc3[nH]c2=O)C(=O)c2ccco2)c1C

Continuation.
KCNQ2 inh baseline	KCNQ2 inh	SMILES
-0.89	i	CC(C(=O)Nc1ccc(F)c(F)c1F)N(C)CCOc1ccccc1 (stereo not given)
2.09	i	OC(CN1CCCCC1)CN1CCCCC1
1.27	i	CCCC(=O)Nc1ccc(Cl)c(NC(=S)NC(=O)C(C)C)c1
0.6	i	COc1ccccc1NC(=O)CN1C(=O)COc2ccc(S(=O)(=O)N3CCCCCC3)cc21
-2.02	i	CC(C)(C)NC(=O)CN(C(=O)CCC(=O)Nc1nccs1)c1ccc2c(c1)OCCO2
-1.44	i	CC(C)C(OC(=O)c1cccs1)C(=O)NCc1ccccc1 (stereo not given)
-0.83	i	Clc1cccc(CSc2nnc([C@@H]3CCCN3)o2)c1
-0.77	i	COC(=O)c1cc(CSc2nnc(-c3ccccc3)c(-c3ccccc3)n2)oc1C

Given with two lines to a compound: 2 of the compounds above
Value order – KCNQ2 inh baseline | KCNQ2 inh
COc1ccccc1NC(=O)CN1C(=O)COc2ccc(S(=O)(=O)N3CCCCCC3)cc21
    0.6 | i
COC(=O)c1cc(CSc2nnc(-c3ccccc3)c(-c3ccccc3)n2)oc1C
    -0.77 | i

(cont.)
KCNQ2 inh baseline	KCNQ2 inh	SMILES
-2.34	i	C/C(=N/NC(=O)c1ccncc1)c1ccc2c(c1)OCO2
-1.76	i	CCOC(=O)N1CCC(N2Cc3cccc(C(=O)Nc4ccc(OCC)cc4)c3C2=O)CC1
-2.18	i	COc1cc(OC)c(NC(C)C(=O)NCc2ccccc2)cc1Cl (stereo not given)
-1.09*	-6.25*	Cc1c(Cl)cccc1NC(=O)CN1CCC(C(O)(c2ccccc2)c2ccccc2)CC1
-1.32	i	COC(=O)c1ccc(Oc2nc(SC)nc(N(C)C)n2)cc1
0.05	i	COc1ccc(N2CC(C(=O)N[C@@H](C)C(=O)N3CCCCC3)CC2=O)cc1 (stereo not given in full)
0.07	i	Cc1ccc(N(C(=O)C(F)(F)F)C(C(=O)NC2CCCCC2)c2cccs2)cc1C (stereo not given)
0.12	i	Cc1cc(NC(=O)CSc2ccc3nnc(CCNS(=O)(=O)c4ccccc4)n3n2)no1

Random excerpt: six entries already listed.
KCNQ2 inh baseline	KCNQ2 inh	SMILES
-1.76	i	CCOC(=O)N1CCC(N2Cc3cccc(C(=O)Nc4ccc(OCC)cc4)c3C2=O)CC1
-2.34	i	C/C(=N/NC(=O)c1ccncc1)c1ccc2c(c1)OCO2
-2.18	i	COc1cc(OC)c(NC(C)C(=O)NCc2ccccc2)cc1Cl (stereo not given)
-1.32	i	COC(=O)c1ccc(Oc2nc(SC)nc(N(C)C)n2)cc1
0.12	i	Cc1cc(NC(=O)CSc2ccc3nnc(CCNS(=O)(=O)c4ccccc4)n3n2)no1
0.07	i	Cc1ccc(N(C(=O)C(F)(F)F)C(C(=O)NC2CCCCC2)c2cccs2)cc1C (stereo not given)

Following part:
KCNQ2 inh baseline	KCNQ2 inh	SMILES
0.52	i	COc1ccc(S(=O)(=O)N2CCN(CCO)CC2)cc1-c1nnc2c3ccccc3c(C)nn12
0.97	i	Cc1cc(C)nc(N2CCC(C(=O)Nc3nnc(C)s3)CC2)n1
-1.51	i	COc1ccc(CCNC(=O)c2ccc(Cl)c(S(=O)(=O)N(C)c3ccccc3)c2)cc1
1.24	i	CC1C(=O)N2CCCc3cc(S(=O)(=O)N(C)CCC#N)cc1c32 (stereo not given)
1.92	i	Cc1nn(-c2ccccc2)c(NC(=O)C(C)C)c(-c2ccccc2)c1=O
0.02	i	COc1ccc(-c2cc3c(=O)n(CC(=O)N4CCCCC4)ncn3n2)cc1
-0.72	i	O=C(Nc1ccc(S(=O)(=O)Nc2ncccn2)cc1)c1ccc(Br)s1
0.09	i	COc1ccc(Nc2ccc(S(=O)(=O)N3CCCCC3)cc2[N+](=O)[O-])cc1Cl

(further entries)
KCNQ2 inh baseline	KCNQ2 inh	SMILES
-1.92	i	Cc1ccccc1NC(=O)C1C2C=CC(C3CC23)C1C(=O)O (stereo not given)
2.16	i	Cc1cc(C=C2C(=O)CCCC2=O)c(C)n1-c1ccccc1
-0.28	i	Cc1ccc(C(=O)COC(=O)CNC(=O)c2ccc(Br)o2)cc1[N+](=O)[O-]
-0.87	i	COc1ccc(CN2CCN(CCCc3ccccc3)C(CCO)C2)cc1OC (stereo not given)
1.91	i	CC1Nc2ncnc(N3CCN(c4ccccc4)CC3)c2N(Cc2ccc(Cl)cc2)C1=O (stereo not given)
-1.58	i	COc1cc([N+](=O)[O-])cc2sc(NC(C)=O)nc12
-0.35	i	O=c1cc(C(F)(F)F)[nH]c2ccc(C(F)(F)F)cc12
-0.4	i	COc1cccc(N2CCN(CC(=O)NCc3ccccc3)CC2)c1

(cont.)
KCNQ2 inh baseline	KCNQ2 inh	SMILES
1.96	i	CCC(=O)Nc1ccc(NC(=O)CSc2nc3c(c(=O)n(C)c(=O)n3C)n2CC)cc1
0.03	i	COc1ccc(C)c2sc(=NC(=O)c3ccc(C(C)=O)cc3)n(C)c12
2.02	i	Cc1ccc(N2CC(C(=O)OCc3ccccc3)CC2=O)cc1 (stereo not given)
-0.12	i	CCn1cc(-c2nnnn2-c2ccc(Cl)cc2)c(=O)c2ccccc21
0.54	i	Cc1ccc(NC(=O)/C(=C/c2ccncc2)NC(=O)c2ccccc2)cc1
0.7	i	CC(C(=O)Nc1ccncc1)(c1ccccc1)c1ccccc1
1.16	i	CCC(=O)n1nc(-c2ccc(OC)cc2)nc1NCc1cccs1
0.8	i	Cc1cccc(C)c1NC(=O)CS(=O)CC(=O)Nc1ccc(N2CCOCC2)cc1 (stereo not given)

The listing continues.
KCNQ2 inh baseline	KCNQ2 inh	SMILES
0.85	i	COc1cc(C(=S)N2CCOCC2)ccc1OC(=O)/C=C/c1ccco1
-0.98*	-7.3*	Cc1cccc(N2CCN(C(=O)C34CC5CC(CC(C5)C3)C4)CC2)c1C
0.12	i	O=C(CNC(=O)c1cccs1)OCC(=O)c1ccc(Cl)cc1
0.17	i	CCNC(=S)N/N=C/c1sccc1C
-0.25	i	O=C(Nc1ccc2c(c1)OCO2)C1CCN(S(=O)(=O)Cc2ccccc2)CC1
-0.07	i	Cc1c(-c2ccccc2)nc2ccccc2c1C(=O)NCc1cccs1
-0.56	i	CCOC(=O)N1CCN(C(=O)COc2ccc(S(=O)(=O)NCc3ccccc3)cc2)CC1
1.05	i	COC(=O)CC(c1ccc(C#N)cc1)n1c(C)ccc1C (stereo not given)

The results go on:
KCNQ2 inh baseline	KCNQ2 inh	SMILES
-1.32	i	CCOC(=O)c1[nH]c2ccccc2c1NC(=O)c1cc(OC)c(OC)c(OC)c1
0.99	i	COc1cc(C(c2sc3ncnn3c2O)N2CCN(c3ccccc3F)CC2)cc(OC)c1OC (stereo not given)
0.2	i	CCc1ccc(CN(C(=O)c2oc3ccccc3c2C)C2CCS(=O)(=O)C2)cc1 (stereo not given)
-0.7	i	COc1ccc(OCC(=O)Nc2ccc3c(c2)C(=O)NC3=O)cc1
1.68	i	Cc1ccc(C(=O)N2CCCC(c3nc4c(nnn4Cc4ccccc4)c(=O)[nH]3)C2)cc1 (stereo not given)
-0.41	i	CSc1cccc(-n2cc(-c3ccc4c(c3)OCO4)[nH]c2=O)c1
1.74	i	O=S(=O)(c1ccc(F)c(F)c1)N1CCN(S(=O)(=O)c2cccs2)CC1
2.29	i	O=C(Cn1ncc(Cl)c(Cl)c1=O)N1CCOCC1

Going on with the list:
KCNQ2 inh baseline	KCNQ2 inh	SMILES
-4.27	i	O=C(CN1CCOCC1)Nc1nc(-c2ccccc2Cl)cs1
-0.32	i	O=C(NNC(=O)C1CCN(S(=O)(=O)c2ccc(Cl)cc2)CC1)c1ccccc1
-1.2	i	CCCc1nnc(NC(=O)c2c(O)c3cccc4c3n(c2=O)CC4)s1
-1.37	i	Cc1nn(C)cc1S(=O)(=O)Nc1ccc2c(c1)OCCO2
3.12	i	COc1ccc(NC(=O)CCl)cn1
2.2	i	Cc1ccc(C(=O)NC(=S)Nc2cccc3nsnc23)cc1
0.26	i	Cc1nc(-c2ccc(F)cc2)c(CC(=O)Nc2cccc(S(=O)(=O)N3CCOCC3)c2)s1
-0.32	i	COc1cccc(NC(=O)CN(C)C(=O)/C=C/c2cn(Cc3ccccc3)nc2-c2cccnc2)c1

Molecules above that contain a cyano group:
KCNQ2 inh baseline	KCNQ2 inh	SMILES
1.24	i	CC1C(=O)N2CCCc3cc(S(=O)(=O)N(C)CCC#N)cc1c32 (stereo not given)
1.05	i	COC(=O)CC(c1ccc(C#N)cc1)n1c(C)ccc1C (stereo not given)

Later entries
KCNQ2 inh baseline	KCNQ2 inh	SMILES
0.26	i	CCOC(=O)c1cc(-c2ccccc2)sc1NC(=O)C(C)C
1.02	i	CC(C)c1nnc(SCC(=O)NC(C)(C)C)n1C
0.14	i	CC(C)Cc1nc(SCC(=O)NCC2CCCO2)c2c(=O)n(C)c(=O)n(C)c2n1 (stereo not given)
-0.62	i	CC(C)(C)n1ncc2c(=O)n(CC(=O)N3CCCC3)cnc21
0.1	i	O=C(CSc1ncccn1)N1CCCc2ccccc21
0.34	i	CCn1c(SCC(=O)Nc2ccccc2Br)nnc1-c1cnccn1
0.69	i	COc1cc2oc(-c3ccc(O)cc3)cc(=O)c2c(OC)c1O
0.07	i	Cc1cc(NC(=O)CSc2nc3c(c(=O)n2-c2ccc(Br)cc2)SCC3)no1

(next part)
KCNQ2 inh baseline	KCNQ2 inh	SMILES
-1.51	i	CCc1c(C)sc(NC(=O)c2cccs2)c1C#N
-0.03	i	Cc1cc(C2=NNC(=NC3CC3)SC2)c(C)n1-c1c(C)n(C)n(-c2ccccc2)c1=O
2.1	i	CS(=O)(=O)N(Cc1ccccc1)c1ccccc1C(=O)O
1.06	i	O=C(Cc1ccc(Br)cc1)NCCN1CCOCC1
-0.03	i	CCOC(=O)c1nn(-c2ccccc2C)c2nc(-c3ccc(Cl)cc3)c(C#N)c(=O)n12
-1.16	i	O=C(c1ccccc1)N1CCCC(C(=O)N2CCCCC2)C1 (stereo not given)
1.55	i	O=C(Nc1ccc(Br)cc1F)C1CCCN(S(=O)(=O)c2cnc[nH]2)C1 (stereo not given)
-1.09	i	Cc1ccc(CNC(=O)CS(=O)Cc2nc(-c3cccs3)oc2C)cc1 (stereo not given)

(further entries)
KCNQ2 inh baseline	KCNQ2 inh	SMILES
-0.43	i	Cc1ccc(S(=O)(=O)N2CCN(Cc3ccco3)CC2)c(C)c1
2.72	i	Cc1cc2nc(C3CCN(Cc4nnnn4Cc4cccs4)CC3)[nH]c2cc1C
-0.06	i	COc1ccccc1NC(=S)NC(=O)C(C)(C)C
0.04	i	Cc1ccc(C2=Nc3cccnc3C(c3ccccc3)=NN2)cc1
-0.17	i	N#CC1=C(N)C(C#N)(C#N)[C@H](c2cccnc2)[C@H]2CN(C(=O)OCc3ccccc3)CC=C12
-1.26	i	[C-]#[N+][C@H](O[C@@H]1O[C@H](CO)[C@@H](O)[C@H](O)[C@H]1O)c1ccccc1
-0.01	i	CCOc1ccc(S(=O)(=O)NCCCl)cc1
0.21	i	CCc1ccccc1NC(=O)CSc1ccsc1[N+](=O)[O-]

(further entries)
KCNQ2 inh baseline	KCNQ2 inh	SMILES
2.3	i	CCCOc1ccc(N2C(=O)CC(N(CCc3ccc(OC)c(OC)c3)C(=S)Nc3ccccc3)C2=O)cc1 (stereo not given)
0.04	i	Cc1onc(-c2ccccc2)c1C(=O)N1CC(C)OC(C)C1 (stereo not given)
-1.39	i	CCc1nnc(NC(=O)C2=NN(C3CCS(=O)(=O)C3)C(=O)CC2)s1 (stereo not given)
1.06	i	O=S(=O)(c1ccc(F)cc1)N1CCc2ccccc21

Compound activity from PubChem.
